Screening data as filed in PubChem BioAssay.
GALR2 agonist: activates the human galanin receptor 2; AID 803; 0.48% of 140,000 active; GALR2-expressing cells, agonist activation read-out; O43603; activation, %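 (tested at 5 µM)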;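 active means above mean plus 3 SD of all compounds, about 5% in these data, not always enough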;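 further: 0% = vehicle buffer wells and 100% = reference agonist at full effect; tested in CHO reporter cells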
Target sequence (O43603 whole entry, looked up): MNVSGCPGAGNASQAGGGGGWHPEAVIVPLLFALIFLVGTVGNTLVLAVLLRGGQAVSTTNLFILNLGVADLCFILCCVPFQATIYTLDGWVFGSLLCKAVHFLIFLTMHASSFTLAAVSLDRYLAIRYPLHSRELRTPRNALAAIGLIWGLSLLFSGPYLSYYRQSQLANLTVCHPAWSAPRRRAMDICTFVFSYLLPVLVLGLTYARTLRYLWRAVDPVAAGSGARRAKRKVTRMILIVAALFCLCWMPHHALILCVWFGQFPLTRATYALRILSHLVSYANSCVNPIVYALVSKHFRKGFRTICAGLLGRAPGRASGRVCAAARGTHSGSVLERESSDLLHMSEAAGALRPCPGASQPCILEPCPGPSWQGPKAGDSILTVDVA
RGS16-Gao HTS: modulates binding between human RGS16 and Galphao. O15492+P09471. bead-based flow cytometry RGS16-Galphao binding, fluorescence; actives lie on both sides. binding response (% of control), % at 10 µM. 0.38% of 220,000 active;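 active means below 25% or above 175%, edge rows of some plates excepted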;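 further: Galphao activated by GDP with aluminum fluoride before binding; 100% = wells without compound and 0% = beads without RGS; some results beyond the cut were filed as inactive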
Target sequence (O15492 whole entry, looked up): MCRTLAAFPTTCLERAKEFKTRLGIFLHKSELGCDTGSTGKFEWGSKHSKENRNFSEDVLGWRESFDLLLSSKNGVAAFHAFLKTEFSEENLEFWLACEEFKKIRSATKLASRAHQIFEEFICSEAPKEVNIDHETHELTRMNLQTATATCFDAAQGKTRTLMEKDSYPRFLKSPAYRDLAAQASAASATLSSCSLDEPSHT
Target sequence (P09471 whole entry, looked up): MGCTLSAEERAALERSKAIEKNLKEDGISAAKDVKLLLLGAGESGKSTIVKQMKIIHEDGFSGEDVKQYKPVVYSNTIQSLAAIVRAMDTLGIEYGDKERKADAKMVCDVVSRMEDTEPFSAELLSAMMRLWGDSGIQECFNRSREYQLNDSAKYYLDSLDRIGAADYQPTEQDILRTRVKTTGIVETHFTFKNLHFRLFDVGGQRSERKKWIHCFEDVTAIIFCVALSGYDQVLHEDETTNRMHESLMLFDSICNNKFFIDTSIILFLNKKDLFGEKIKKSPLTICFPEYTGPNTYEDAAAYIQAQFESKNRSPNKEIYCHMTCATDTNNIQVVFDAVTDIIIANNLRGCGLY
PKD1 inh: blocks activity of human protein kinase D1. Q15139. PKD1 kinase fluorescence polarization assay. inhibition, %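 (about 10 µM by stock and volumes)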. 0.056% of 200,000 active. AID 797;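 active means inhibition of 50% or more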;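 further: controls were vehicle for no effect and a reference inhibitor for full effect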
Insulin prom inh: TRM-6 insulin promoter activity inhibition. TRM-6 cells (human fetal islet line), insulin promoter-eGFP reporter, imaging; reporter expression induced with tamoxifen. 0.9% of 130,000 active. inhibition, % at 2 µM;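 active means inhibition above the mean plus 3 SD, with well images judged a real hit on visual review, cut at about 60% in these data, passing the limit was not always enough; inconclusive means inhibition over the cutoff but images rejected on review; inactive means inhibition not above the cutoff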
HSV replic up: increases HSV replication in cells. maximum fold increase. HSV replication augmentation in cells, fold increase. AID 1956. 0.005% of 220,000 active;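 active means peak rise of 1.5-fold or more in the series; inconclusive means self-fluorescent or not available for retest; tested in PC3 cells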;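 further: first round at 10 µM; read as green reporter fluorescence; hits show the peak of a series up to 25 µM; 1 = signal of infected wells without compound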
Insulin prom inh cell count: recorded beside Insulin prom inh, whose call it bears; normalized cell count, %; measured here: cell count, toxicity; reference of the scale not given here;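 cells exposed to compound for 48 h; stained nuclei by imaging scaled within each plate; lower means fewer cells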
HSV replic up primary fold: second read-out of HSV replic up, no call of its own (marks repeat the call); fold increase; compound at 10 µM; measured here: primary screen fold increase 10 uM; tested in PC3 cells;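 GFP signal in the first replicate; 1 = infected wells without compound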
An asterisk follows results filed as active; i = inactive; ? = inconclusive; . = no result given. Compounds as they come; about 1.2% have a hit in one of these screens.

no. | Compound | GALR2 agonist | RGS16-Gao HTS | PKD1 inh | Insulin prom inh | Insulin prom inh cell count | HSV replic up | HSV replic up primary fold
1 | COc1ccc(CC(=O)NNC(=O)CSc2ccc(C)cc2)cc1 | . | 105 | 1 | . | . | i | 0.89
2 | CCCS(=O)(=O)Nc1cc(C(F)(F)F)ccc1OCCOC | -0.7 | 99 | -14 | . | . | i | 0.96
3 | COc1ccc(C)c2sc(N3CCCC3)nc12 | 0.6 | 98 | 7 | . | . | i | 0.95
4 | CCSc1nnc(NC(=O)CCc2ccccc2)s1 | -2.5 | 95 | -28 | -27 | 73 | i | 0.82
5 | Cc1ccc(C)n1-n1cnc2scc(-c3cccs3)c2c1=O | -1.1 | 99 | 2 | -44 | 96 | i | 0.98
6 | CC1CN(c2ccc(Oc3ccccc3)cc2)c2nc3c(c(=O)[nH]c(=O)n3C)n2C1 (stereo unspecified) | -1.4 | 103 | -1 | 14 | 144 | i | 0.9
7 | Cc1noc(C)c1S(=O)(=O)N1CCC(C(=O)NCCc2ccc(S(N)(=O)=O)cc2)CC1 | -2.5 | 103 | -2 | 10 | 67 | i | 1
8 | CC(C)c1cccc(C(C)C)c1NC(=O)CCl | . | 97 | 1 | . | . | i | 0.84
9 | N#Cc1c(NC(NC(=O)c2ccco2)C(=O)c2ccccc2)sc2c1CCCC2 (stereo unspecified) | 1.1 | 102 | -1 | -23 | 109 | i | 0.95
10 | O=C(CCc1nc2ccccc2c(=O)[nH]1)OCC(=O)c1ccc(C2CCCCC2)cc1 | -0.1 | 101 | -5 | 0 | 89 | i | 0.98
11 | CCCn1c(=O)c2c(c3ccccc31)OCC(=O)N2 | -1.3 | 103 | -12 | -9 | 144 | i | 0.9
12 | O=C(O)C1CCCCC1C(=O)NCc1ccncc1 (stereo unspecified) | 0.4 | 95 | 1 | . | . | i | 0.99
13 | CCc1ccccc1NC(=O)Cn1nnc(-c2cccs2)n1 | -2.0 | 103 | 7 | . | . | i | 0.98
14 | Cc1ccccc1C(=O)NC1CCSC1=O (stereo unspecified) | . | 99 | . | . | . | i | 0.94
15 | Cn1nc(C(F)(F)F)c(/C=N/OC(=O)c2ccccc2)c1Sc1ccc(Cl)cc1 | -1.0 | 102 | 1 | . | . | i | 0.91
16 | CCOC(=O)C1=C(C)n2c(s/c(=C3\C(=O)Nc4ccccc43)c2=O)=NC1c1ccc(OC)cc1 (stereo unspecified) | 0.4 | 99 | 4 | . | . | i | 0.87
17 | COc1ccc(N2CCN(C(=O)CCNS(=O)(=O)c3ccc4c(c3)CCC(=O)N4)CC2)cc1 | -1.1 | 104 | -2 | 37 | 105 | i | 0.73
18 | C=CCn1c(SCC(=O)Nc2ccc(C)cc2C)nnc1-c1cccnc1 | -1.0 | 107 | 3 | -25 | 132 | i | 0.85
19 | COc1ccc(CCNC(=O)COc2cc(=O)n(C)c3ccccc23)cc1OC | . | 103 | -3 | -20 | 85 | i | 0.92
20 | COCCCN(C(=S)Nc1cc(Cl)cc(Cl)c1)C(C)c1ccncc1 (stereo unspecified) | -1.4 | 100 | -9 | 23 | 125 | i | 0.85
21 | Cc1cccc(C)c1NC(=O)NC1(C(=O)N2CCOCC2)CCCCC1 | . | 99 | 4 | -43 | 95 | i | 0.96
22 | CCn1c(C(=O)N2CCCC(C(=O)NCCc3ccc(C)cc3)C2)cc2sccc21 (stereo unspecified) | 0.2 | 87 | -3 | . | . | i | 1
23 | Cc1cc(C)c(C#N)c(SCC(=O)Nc2ccc3c(c2)OCO3)n1 | 0.3 | 87 | 0 | 16 | 82 | i | 0.94
24 | COCC(=O)NC1CCN(S(=O)(=O)c2ccc(C(=O)O)cc2)CC1 | -2.0 | 107 | -2 | 0 | 85 | i | 0.9
25 | COC(=O)c1ccc(COc2ccccc2/C=C(\C#N)C(=O)NC(C)C)cc1 | 0.5 | 65 | 3 | . | . | i | 0.89
26 | O=C(NC1=NCCS1)c1cccc(N2C(=O)c3ccccc3C2=O)c1 | . | 103 | -4 | -35 | 104 | i | 0.99
27 | COc1ccc(C(C)N2CC34C=CC(O3)C(C(=O)O)C4C2=O)cc1 (stereo unspecified) | -1.2 | 98 | -2 | 38 | 84 | . | .
28 | NS(=O)(=O)c1cc(C(=O)OCC(=O)c2ccccc2)c(Cl)cc1Cl | . | 122 | 10 | . | . | i | 1.1
29 | Cc1ccc(NC2=NC3(CCCC3)N=C(N)N2)c(C)c1 | . | 97 | -5 | . | . | i | 0.84
30 | CC(C)Oc1ccccc1/C=N/Nc1ccccc1[N+](=O)[O-] | -2.6 | 67 | 7 | 55 | 112 | i | 1
31 | CC(=O)c1cnc(SCCN2C(=O)c3ccccc3C2=O)nc1C | -2.3 | 99 | 1 | 47 | 38 | i | 0.97
32 | COc1ccc(CCNc2nc(-c3sc(N)nc3C)cs2)cc1OC | -0.1 | 104 | -1 | -91 | 32 | ? | .
33 | O=C(CN(CCc1ccccc1)C(=O)CNS(=O)(=O)c1ccc(F)cc1)NCc1ccco1 | -0.8 | 108 | -4 | -36 | 85 | i | 0.99
34 | COC(=O)c1ccccc1Sc1ncnc2onc(C)c12 | . | 97 | -6 | -31 | 99 | i | 1
35 | N#CCCN1CCN(C(=S)c2ccc(-c3cc(Cl)ccc3Cl)o2)CC1 | -0.9 | 96 | -9 | -18 | 181 | . | .
36 | COc1cccc(/C=N/NC(=O)CSCC(=O)Nc2ccccc2)c1O | -3.6 | 84 | 8 | -28 | 103 | i | 0.58
37 | COC(=O)CC1C(=O)NCCN1C(=S)Nc1cccc(C)c1 (stereo unspecified) | -0.3 | 114 | -3 | -38 | 94 | i | 0.98
38 | O=C(CSc1nc(C2CC2)nc2ccccc12)N1c2ccccc2Sc2ccc(C(F)(F)F)cc21 | -0.9 | 96 | -3 | 53 | 83 | i | 0.84
39 | C/C=C/c1ccc(OCCCCOc2ccccc2F)c(OC)c1 | 0.7 | 108 | 13 | -107 | 88 | i | 0.92
40 | CCN(CC)C(=O)Sc1cccc2cccnc12 | 0.2 | 101 | 9 | . | . | i | 0.85
41 | Cc1ccc(S(=O)(=O)N(C)c2ccc(C(=O)N3CCc4ccccc4C3)cc2)cc1 | . | 99 | 3 | -21 | 136 | i | 1.2
42 | O=C(NCC1CCCO1)c1ccc(NC(=O)C2CCCCC2C(=O)O)cc1 (stereo unspecified) | -0.5 | 99 | 2 | -12 | 189 | i | 0.99
43 | CC1CCN(CC(O)COC2CCC(C(C)(C)C)CC2)CC1 (stereo unspecified) | -2.0 | 100 | 5 | -14 | 117 | i | 0.77
44 | COc1cc(CNC(C)(C)C)ccc1OCC(=O)NC(C)(C)C | . | 99 | 11 | . | . | i | 0.96
45 | COc1ccc(C(=O)CCc2nc3ccccc3s2)cc1 | -0.6 | 108 | 4 | . | . | i | 0.94
46 | O=C(Cc1ccccc1)N/N=C/c1cccc([N+](=O)[O-])c1 | . | 103 | 0 | . | . | i | 0.87
47 | FC(F)(F)c1cnc(Oc2ccccc2-c2nnc(-c3ccc(Cl)cc3)o2)c(Cl)c1 | -0.2 | 84 | -7 | 14 | 38 | i | 0.86
48 | COC(=O)NNC(=O)C12CC3CC(CC(C3)C1)C2 | 0.1 | 101 | -6 | . | . | . | .
49 | CCN(c1ccccc1)S(=O)(=O)c1cc(NC(=O)Nc2ccccc2C#N)ccc1Cl | 0.1 | 98 | -10 | -26 | 113 | i | 0.97
50 | CC(C)(C)C1CCc2c(sc3nc(SCC(=O)O)nc(N)c23)C1 (stereo unspecified) | . | 104 | . | . | . | i | 1
51 | Cc1cccc(C)c1NC(=O)CSc1nnc([C@@H]2CCCN2C(=O)OC(C)(C)C)o1 | -0.8 | 96 | -1 | -4 | 123 | i | 0.79
52 | CC1(C)CC(=NO)CC(C)(C)N1 | -0.8 | 100 | -9 | . | . | i | 1
53 | Cc1ccc(C)c(NC(=S)NNC(=O)c2csc3c2CCC(C)C3)c1 (stereo unspecified) | -2.6 | 83 | -3 | 37 | 139 | i | 0.78
54 | O=C(CSc1ccc(-c2cccs2)nn1)NCc1ccccc1Cl | -0.2 | 99 | 2 | . | . | i | 1
55 | CN(CC/C=C1/c2ccccc2CSc2ccccc21)CCCO | 0.3 | 106 | -14 | -31 | 117 | i | 0.72
56 | C=CCNC(=O)c1onc(CSc2ccc(C)c(C)c2)c1C(=O)O | -3.4 | 103 | -1 | 57 | 136 | i | 0.86
57 | CCCCOC(=O)C1=C(C)NC2=C(C(=O)CCC2)C1c1cc(OC)ccc1OC (stereo unspecified) | 0.1 | 98 | -5 | . | . | . | .
58 | Cc1cnccc1CN(C)Cc1nc(Cc2ccccc2Cl)no1 | . | 108 | -3 | -58 | 126 | i | 0.95
59 | O=C(Cn1nnc(-c2ccccc2)n1)N/N=C/c1cccc([N+](=O)[O-])c1O | . | 94 | -2 | -6 | 195 | i | 0.98
60 | O=C(Cn1cnc2c(cnn2-c2ccccc2)c1=O)N1CCN(c2ccc(F)cc2)CC1 | -2.0 | 102 | -3 | . | . | i | 1

Among those listed so far, 4 have a CF3 group.
no. | Compound | GALR2 agonist | RGS16-Gao HTS | PKD1 inh | Insulin prom inh | Insulin prom inh cell count | HSV replic up | HSV replic up primary fold
2 | CCCS(=O)(=O)Nc1cc(C(F)(F)F)ccc1OCCOC | -0.7 | 99 | -14 | . | . | i | 0.96
15 | Cn1nc(C(F)(F)F)c(/C=N/OC(=O)c2ccccc2)c1Sc1ccc(Cl)cc1 | -1.0 | 102 | 1 | . | . | i | 0.91
38 | O=C(CSc1nc(C2CC2)nc2ccccc12)N1c2ccccc2Sc2ccc(C(F)(F)F)cc21 | -0.9 | 96 | -3 | 53 | 83 | i | 0.84
47 | FC(F)(F)c1cnc(Oc2ccccc2-c2nnc(-c3ccc(Cl)cc3)o2)c(Cl)c1 | -0.2 | 84 | -7 | 14 | 38 | i | 0.86

Other compounds:
no. | Compound | GALR2 agonist | RGS16-Gao HTS | PKD1 inh | Insulin prom inh | Insulin prom inh cell count | HSV replic up | HSV replic up primary fold
61 | CCn1cc(/C=C/C(=O)Nc2ccc(C)cc2Br)cn1 | -2.1 | 69 | -7 | . | . | i | 1
62 | CCN=C1NN=C(c2c[nH]c3ccccc23)CS1 | . | 99 | 6 | . | . | i | 1.1
63 | Cc1cc(O)c(C(C)C)cc1N=C1CSC(=O)N1 | -2.1 | 82 | -4 | . | . | i | 1.1
64 | CCc1nnc(NC(=O)COC(=O)CN2C(=O)c3ccccc3C2=O)s1 | -1.4 | 96 | -7 | 16 | 50 | i | 0.84
65 | CCc1sc(N(C(=O)Cc2ccccc2)c2ccccc2F)nc1-c1ccc(C)cc1 | -2.1 | 100 | -9 | . | . | i | 1.1
66 | O=C(O)c1ccccc1C(=O)NC1CCCCNC1=O (stereo unspecified) | . | 102 | . | . | . | i | 0.96
67 | CC1CCc2nn(CC(=O)NCCCN3CCCCC3)cc2C1 (stereo unspecified) | . | 98 | -3 | . | . | i | 0.93
68 | COc1ccc(OC)c(S(=O)(=O)N2CCC(C(=O)Nc3ccccc3)CC2)c1 | . | 105 | 1 | . | . | i | 1
69 | CC1CC1C(=O)Nc1nc(-c2ccc(Cl)s2)cs1 (stereo unspecified) | . | 105 | 1 | 17 | 171 | i | 0.9
70 | O=C(O)CCCSc1nccn1-c1ccccc1 | . | 106 | -4 | -18 | 126 | i | 1.1
71 | Cc1ccc(CN2CCN(Cc3cccc(OCCO)c3)CC2CCO)o1 (stereo unspecified) | . | 110 | -4 | 39 | 72 | i | 0.97
72 | CS(=O)(=O)N(CCc1ccccc1)CC(=O)NCc1ccco1 | -1.5 | 97 | -4 | 42 | 82 | i | 1
73 | O=C(Nc1nnc(SCc2c(Cl)cccc2Cl)s1)c1cccc([N+](=O)[O-])c1 | . | 110 | . | . | . | i | 0.88
74 | CCOC(=O)CN1C(=N)N(c2nc(NC(C)C)nc(NC(C)C)n2)CC1=O | 0.2 | 106 | 4 | -492 | 54 | i | 0.86
75 | O=C(N/N=C/c1cc2c(cc1Br)OCO2)C1COc2ccccc2O1 (stereo unspecified) | . | 99 | -4 | . | . | i | 0.88
76 | Cc1ccccc1-n1c(O)cc(=O)[nH]c1=S | . | 107 | -4 | -5 | 72 | i | 0.97
77 | COCCSc1ccccc1C(=O)NCCc1ccccc1 | . | 97 | 1 | . | . | i | 0.93
78 | CCCN1CC=C2C(C#N)=C(N)C(C#N)(C#N)C(c3cccc(OC)c3OC)C2C1 (stereo unspecified) | 1.5 | 103 | 1 | -212 | 140 | ? | .
79 | CC(C)COC(=O)N1CC(O)CC1C(=O)O (stereo unspecified) | -1.1 | 99 | -13 | . | . | i | 0.97
80 | N=c1c(S(=O)(=O)c2ccccc2)cc2c(=O)n3ccccc3nc2n1CCN1CCOCC1 | 2.3 | . | -2 | 52 | 134 | . | .
